# YopH PTP inh: YopH (Yersinia) phosphatase inhibition; inhibition, %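 (about 10 µM by stock and volumes)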; 140,000 tested, 0.16% active; fluorescence Ex485/Em525;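 active = inhibition of 50% or more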;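 also: controls were vehicle for no effect and minimum signal wells for full effect; inactives centre near -20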
# RecA intein inh: Mtb RecA intein splicing inhibition; P9WHJ3; cell-free RecA intein splicing, fluorescence; inhibition, %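 (about 9 µM by stock and volumes)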; 290,000 tested, 0.75% active; in the data active = inhibition above about 30%; inconclusive = no clear call, values can overlap the other calls;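 also: 0% = vehicle wells and 100% = reference inhibitor control wells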
# Target sequence (P9WHJ3 whole entry, looked up): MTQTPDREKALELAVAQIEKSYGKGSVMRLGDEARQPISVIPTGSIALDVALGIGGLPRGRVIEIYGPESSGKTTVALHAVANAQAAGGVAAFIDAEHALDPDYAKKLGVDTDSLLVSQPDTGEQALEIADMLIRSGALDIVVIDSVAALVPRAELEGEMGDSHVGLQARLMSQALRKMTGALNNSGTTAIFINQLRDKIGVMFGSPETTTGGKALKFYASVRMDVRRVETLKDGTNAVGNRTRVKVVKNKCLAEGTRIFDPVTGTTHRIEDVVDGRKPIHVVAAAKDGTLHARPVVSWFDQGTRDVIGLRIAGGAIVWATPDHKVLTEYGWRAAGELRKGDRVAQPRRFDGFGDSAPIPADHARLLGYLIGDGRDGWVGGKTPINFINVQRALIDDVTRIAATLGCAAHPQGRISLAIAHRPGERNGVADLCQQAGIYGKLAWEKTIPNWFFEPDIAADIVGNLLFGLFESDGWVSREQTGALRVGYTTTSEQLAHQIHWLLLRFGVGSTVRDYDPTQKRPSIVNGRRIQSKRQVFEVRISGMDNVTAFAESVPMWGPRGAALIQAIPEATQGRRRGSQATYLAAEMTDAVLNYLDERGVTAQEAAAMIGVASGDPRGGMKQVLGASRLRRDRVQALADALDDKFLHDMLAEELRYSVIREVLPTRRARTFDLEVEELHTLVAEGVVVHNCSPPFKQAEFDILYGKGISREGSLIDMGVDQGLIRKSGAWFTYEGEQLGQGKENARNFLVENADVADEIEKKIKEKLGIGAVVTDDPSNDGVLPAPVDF
# Mtb H37Rv: M. tuberculosis H37Rv growth inhibitors, H37Rv strain (AID 1626) | inhibition, % at 10 µM, or IC50 in µM where a hit was titrated | 220,000 tested, 0.95% active | M. tuberculosis H37Rv growth inhibition; higher % means a stronger effect;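 active = confirmed in a dose series; inconclusive = inhibition above 80% but not taken into the dose series; inactive = below 80% or under 30% at every dose of the series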;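 also: bacteria incubated seven days before Alamar blue readout; 0% = bacteria only wells and 100% = bacteria with antibiotic wells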
# Mtb betalactam: beta-lactam sensitization of Mtb H37Rv | M. tuberculosis H37Rv growth with meropenem, percent inhibition; hits of this screen are not shown here | inhibition, % at 25 µM | 330,000 tested, 0.27% active | AID 434955;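 active = about 74% or more and at least 40 points above the plate without the antibiotic, then above 30% in a dose series; inconclusive = first-round hits that could not be retested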;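 also: growth measured after seven days incubation then overnight dye step; 0% = bacteria only wells and 100% = bacteria with antibiotic; twin plates without the antibiotic show which effects depend on it; some results filed as inactive read as strong as hits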
# Arbovirus anti: antivirals against arbovirus infection. arbovirus infection cell-based antiviral screen. inhibition, % at 10 µM. 200,000 tested, 0.37% active. AID 1251;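 active = inhibition from about 30%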;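 also: bluetongue infection of BSR cells; cell survival read as ATP light after 72 h; 0% = infected wells without compound and 100% = uninfected wells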
# Arbovirus anti repeat: recorded beside Arbovirus anti, whose call it bears; inhibition, %; measured here: 10K subset replicate screen; many hits read low in the repeat;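 first of two repeat runs on a subset; 0% = infected and 100% = uninfected wells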
# Starred values were filed as active, the others as inactive; ? = inconclusive; / = no result given. This is a subset. The share of hits here may be higher or lower than overall.
SMILES,YopH PTP inh,RecA intein inh,Mtb H37Rv,Mtb betalactam,Arbovirus anti,others
CN(C)c1ccc(C2NC(=O)c3ccccc3N2)cc1 (stereo unspecified),/,-3.9,/,13,/,
O=C(NC1CCCC1)C(c1ccccc1)N(C(=O)c1ccco1)C1CCCC1 (stereo unspecified),-1,-0.1,-10%,-8,-15,
O=C(CSc1nncs1)Nc1ccc(Cl)cc1C(F)(F)F,/,0.5,/,-12,/,
CCOC(=O)C1CCCN(C(=O)COc2ccc(N(C)S(=O)(=O)c3ccc(C)cc3)cc2)C1 (stereo unspecified),/,-1.0,-2%,-4,2,
O=C(NC1CCN(C(=S)NCc2ccco2)CC1)c1ccc(F)cc1,-37,1.9,-5%,-11,5,
CCOC(=O)CN1C(=O)C(=O)c2cc(C)ccc21,-1,1.6,-11%,19,4,
CCc1nccn1CCC(=O)N1CCCC(N2CCN(c3cccc(Cl)c3)CC2)C1 (stereo unspecified),/,-0.7,/,-1,/,
CCOC(=O)N1CCN(S(=O)(=O)c2ccc(C(=O)N(CCN(CC)CC)c3nc4ccc(C)cc4s3)cc2)CC1,/,-0.4,/,1,/,
CCOc1ccc(C(=O)Nc2ccccc2N2CCCC2)cc1,16,1.1,-9%,-2,-15,
COc1ccc(-c2[nH]ncc2CN2CCC(C(=O)N3CCOCC3)CC2)c(F)c1,/,1.1,7%,-2,6,
O=S(=O)(c1ccc(N2CCN(c3ccc(F)cc3)CC2)cc1)N1CCCC1,-26,-0.5,-4%,-6,-1,
COc1cccc(C(=O)NCC2CCN(c3ccc(S(=O)(=O)N4CCOCC4)cc3)CC2)c1,-14,-0.9,9%,-9,3,
COc1ccc(CN2C(=O)c3ccccc3C2=O)cc1,/,0.2,/,5,/,
O=C(O)c1ccc2c(=O)n3c(nc2c1)/C(=C/c1ccc(Cl)c([N+](=O)[O-])c1)CC3,/,-1.0,/,-3,/,
CC1(C)CC(=O)C(C=NCCN2CCN(C(=O)c3ccccc3)CC2)=C(O)C1,-34,-0.8,2%,2,5,
O=C(O)c1ccc(N/N=C/c2ccc(-c3cc(Cl)ccc3Cl)o2)cc1,/,-52,22%,55,/,
CCn1c(SCC(=O)Nc2ccccc2)nnc1-c1ccc(S(=O)(=O)N2CCOCC2)cc1,-21,1.4,-5%,-1,-2,
CCc1ccc(OCC(=O)Nc2cccc3c2CCCC3)cc1,-10,2.1,42%,47,-2,
Cc1cc(C(=O)OCCN2C(=O)c3ccccc3C2=O)c2ccccc2n1,-23,0.4,-4%,1,-2,
O=c1[nH]c(CN2CCN(S(=O)(=O)c3ccc4c(c3)OCCO4)CC2)nc2sc3c(c12)CCCC3,-9,-1.0,3%,-1,11,
O=C(NCCc1c[nH]c2ccccc12)c1cnc2n(c1=O)CCS2,-13,0.3,5%,5,10,Arbovirus anti repeat=13
Cn1nc(-c2ccccc2)cc1NC(=O)CCCC(=O)O,/,-0.5,-5%,-12,/,
Cc1cc(C(=O)N2CCN(c3ccccn3)CC2)no1,-12,5.6,1%,-2,-5,Arbovirus anti repeat=2
Cc1cccc(N(CC(=O)NC2CCCCC2)C(=O)c2csnn2)c1,/,2.1,/,-6,/,

# Ordered by molar mass (low to high): part of the list above.
SMILES,YopH PTP inh,RecA intein inh,Mtb H37Rv,Mtb betalactam,Arbovirus anti,others
COc1ccc(CN2C(=O)c3ccccc3C2=O)cc1,/,0.2,/,5,/,
Cn1nc(-c2ccccc2)cc1NC(=O)CCCC(=O)O,/,-0.5,-5%,-12,/,
Cc1cccc(N(CC(=O)NC2CCCCC2)C(=O)c2csnn2)c1,/,2.1,/,-6,/,

# Following part
SMILES,YopH PTP inh,RecA intein inh,Mtb H37Rv,Mtb betalactam,Arbovirus anti,others
CCOC(=O)C1=C(c2ccccc2)NC(=O)NC1c1cccc(OC)c1OC (stereo unspecified),/,-1.0,/,-7,/,
Cc1ccc(NS(=O)(=O)c2cc(C(=O)NCc3cccnc3)ccc2C)cc1,/,0.4,/,-4,/,
CN(C)c1ccc(C(=O)OCc2ccccc2)cc1,0,2.6,-9%,5,-8,
O=C(C1=COCCO1)N1CCN(S(=O)(=O)c2cccc(Cl)c2Cl)CC1,9,4.7,-2%,8,9,
Cc1c(C)n(Cc2ccccc2)c2ncnc(N)c12,-48,0.7,-9%,-11,1,
CCc1nc(-c2ccc(C)nc2OC)no1,-15,-1.3,-1%,-10,5,
Cc1ccc(NC(=O)CSc2nnc(-c3cnccn3)n2-c2ccccc2)cc1,-43,-1.7,-5%,-3,5,
CC(=O)Nc1ccc(SCC(=O)c2cc(C)n(-c3ccccc3)c2C)cc1,-22,-0.3,?,0,-16,
CCCCn1c(N)c(N(CC(C)C)C(=O)C2CCN(S(=O)(=O)c3ccc(Cl)cc3)CC2)c(=O)[nH]c1=O,/,4.4,/,-7,/,
O=C(COC(=O)c1cc2ccccc2oc1=O)c1cccc([N+](=O)[O-])c1,-8,1.9,-4%,-5,1,
Cc1cccc(-n2c(-c3ccc(Br)o3)n[nH]c2=S)c1,/,0.7,/,-2,/,
O=S(=O)(NC(=NCc1ccccc1)c1ccccc1F)c1ccccc1,/,4.6,-5%,-4,0,
CCC(C)(C)NC(=O)C(c1ccccc1)N(Cc1cccs1)C(=O)Cn1nnc2ccccc21 (stereo unspecified),-23,0.3,8%,29,/,
CCc1c(OC(C)=O)c2ccccc2n(C)c1=O,-24,-2.2,-1%,-2,13,
CC1CCN(CCn2c(=S)[nH]c3cc4c(cc3c2=O)OCO4)CC1,/,1.9,-6%,0,1,
O=C(COC(=O)c1cncc(Br)c1)NCC1CCCO1 (stereo unspecified),-23,4.2,-5%,-4,-1,
Cc1cc(F)ccc1NC(=O)c1cnccn1,/,-3.9,-7%,-3,-2,
CS(=O)(=O)N1CCN(Cc2ccc(C(F)(F)F)cc2)CC1,-2,-6.1,-8%,-3,-3,
O=C1CC(C(=O)NCc2ccccc2)N=C(N2CCCCC2)N1 (stereo unspecified),-20,/,-5%,-6,1,
CC[C@@H]1CC=C[C@H]2[C@H]1C(=O)N(Cc1ccccc1)[C@H]2c1ccc2ccccc2c1,/,8.4,3%,/,/,
O=C(CCCN1C(=O)/C(=C/c2cccs2)SC1=S)NNC(=O)c1ccncc1,/,-0.4,75%,99,-13,
CCCCn1c(-c2ccco2)n[nH]c1=S,-26,-6.0,5%,5,-2,
NC1=NC(c2cn[nH]c2-c2ccc(F)cc2)n2c(nc3ccccc32)N1 (stereo unspecified),/,0.8,-1%,5,8,
O=C(Cc1cccs1)NCc1ccc(F)cc1,17,-0.3,-4%,14,-5,
CCOc1ccc(C(C)=O)cc1CSc1nnc(-c2cccs2)n1CC1CCCO1 (stereo unspecified),-32,2.6,-5%,5,1,
C=CCSc1nc(C)c(CC(=O)OCCCC)c(=O)[nH]1,-20,-1.4,-4%,4,-3,
O=C(Nc1nc2ccc(Cl)cc2s1)C1CC1,/,-0.4,/,14,/,
O=C(Nc1ccc(F)cc1)C1CCCN(S(=O)(=O)c2cccc3cccnc23)C1 (stereo unspecified),-43,0.1,3%,-5,-5,Arbovirus anti repeat=5
Cc1c(C)c2cc(Cl)c(O)c(CN3CCN(C)CC3)c2oc1=O,-21,/,-9%,-1,1,
Cc1ccccc1NC(=O)CCOc1ccccc1,/,1.2,/,0,/,
COc1cccc(NC(=O)CN2C(=O)NC(c3ccccc3)(c3ccccc3)C2=O)c1,/,7.1,/,-5,/,
CCOC(=O)C1CCN(S(=O)(=O)c2ccc(-n3cnnn3)c(C)c2)CC1,-9,0.6,-3%,-3,16,
CCOc1ccc(C(=O)NNC(=O)c2cc(C)oc2C)cc1,/,2.9,/,-6,/,
Cc1ccc(C(=O)NCCCNCCCN(C)C)cn1,-7,1.3,2%,0,2,
Cc1ccc(OCCn2cnc(Cl)c2Cl)cc1,/,-3.3,-5%,0,-6,
CN1CCC(N(C)CC(C)(C)NS(=O)(=O)c2ccccc2)CC1,/,-1.7,-4%,-7,/,
Cc1nn(-c2ccc(N3CCOCC3)nn2)c(C)c1CCC(=O)Nc1ccccc1,/,0.6,/,-2,/,
CC1=CC(C)(C)N(C(=O)c2ccccc2)c2ccc(C)cc21,-8,3.4,/,/,-4,
CCn1c(COc2ccccc2C)nnc1SCC(=O)N1CCCCC1,-60,-4.2,2%,5,-2,
CC1(C)CC(=O)C(CS(=O)(=O)c2ccccc2)=C(Cl)C1,/,2.6,/,-2,/,
Cc1cc(NC(=O)COc2ccc(F)c(Cl)c2)no1,/,-0.2,/,-5,/,
CCCCCC(=O)N1CCN(CCN=CC2=C(O)CC(c3ccc(OC)c(OC)c3)CC2=O)CC1 (stereo unspecified),-44,2.2,0%,2,15,
O=C(NCc1ccccn1)C(=O)Nc1cccc2ccccc12,/,2.0,7%,-1,-3,
Cc1cc(C(=O)NN=C2CCCC2)c2ccccc2n1,/,-1.5,/,-12,/,
COc1cccc(CNC(=O)CN2C(=O)CSc3ccc(S(=O)(=O)N4CCCCC4)cc32)c1,/,0.1,/,2,/,
Cc1ccc(S(=O)(=O)Nc2ccc(S(=O)(=O)N3CCOCC3)cc2)cc1,/,-9.0,/,-1,/,
CC(C)c1ccc(NC(=O)c2cc(S(=O)(=O)N3CCCC3)c[nH]2)cc1,/,6.1,/,2,/,
Cc1cc(C)n2nc(C(=O)Nc3ccc(N4CCOCC4)cc3)nc2n1,-3,-1.4,-4%,-6,1,

# Not a retest: an excerpt of the list.
SMILES,YopH PTP inh,RecA intein inh,Mtb H37Rv,Mtb betalactam,Arbovirus anti,others
CCCCCC(=O)N1CCN(CCN=CC2=C(O)CC(c3ccc(OC)c(OC)c3)CC2=O)CC1 (stereo unspecified),-44,2.2,0%,2,15,
O=C(NCc1ccccn1)C(=O)Nc1cccc2ccccc12,/,2.0,7%,-1,-3,
Cc1cc(C(=O)NN=C2CCCC2)c2ccccc2n1,/,-1.5,/,-12,/,
COc1cccc(CNC(=O)CN2C(=O)CSc3ccc(S(=O)(=O)N4CCCCC4)cc32)c1,/,0.1,/,2,/,
Cc1ccc(S(=O)(=O)Nc2ccc(S(=O)(=O)N3CCOCC3)cc2)cc1,/,-9.0,/,-1,/,
CC(C)c1ccc(NC(=O)c2cc(S(=O)(=O)N3CCCC3)c[nH]2)cc1,/,6.1,/,2,/,
Cc1cc(C)n2nc(C(=O)Nc3ccc(N4CCOCC4)cc3)nc2n1,-3,-1.4,-4%,-6,1,

# 2 entries picked at random from those above, as already listed:
SMILES,YopH PTP inh,RecA intein inh,Mtb H37Rv,Mtb betalactam,Arbovirus anti,others
Cc1cc(NC(=O)COc2ccc(F)c(Cl)c2)no1,/,-0.2,/,-5,/,
CC1=CC(C)(C)N(C(=O)c2ccccc2)c2ccc(C)cc21,-8,3.4,/,/,-4,

# (listing goes on)
SMILES,YopH PTP inh,RecA intein inh,Mtb H37Rv,Mtb betalactam,Arbovirus anti,others
Cc1nc2ccc(NC(=O)C3CCN(S(=O)(=O)c4cccs4)CC3)cc2s1,-17,/,1%,-2,3,
O=[N+]([O-])C(/C=C(\Cl)[N+](=O)[O-])=C1N(Cc2ccc(Cl)nc2)CCN1Cc1ccc(Cl)nc1,-19,61*,-4%,8,2,
Cc1cc(C)c(OCC(=O)N(Cc2ccccc2)C2CCS(=O)(=O)C2)c(C)c1 (stereo unspecified),/,1.2,/,-1,/,
Cc1cc(C(=O)NP(=O)(N2CCOCC2)N2CCOCC2)c(C)n1-c1ccc(N(C)C)cc1,-24,1.1,5%,3,-12,
COC(=O)c1sc(NC(=S)NC(=O)c2ccccc2Cl)nc1C,-4,5.8,13%,6,-14,
CCOC(=S)SCc1cn2cccc(C)c2n1,/,0.3,-2%,-3,-3,
Cn1nnc(NC(=S)NC(=O)c2cccs2)n1,0,-2.6,0%,0,3,
CCN1CCN(CC(=O)c2cc(Cl)ccc2Cl)CC1,/,-0.7,-5%,-12,2,
COc1ccc(CNC(=O)CN(Cc2ccccc2OC)C(=O)c2csnn2)cc1,/,0.6,/,2,/,
CCN(c1ccc(NC(=O)COC(=O)c2ccc(S(=O)(=O)N3CCCC3)cc2)cc1)C(C)C,-12,1.5,-7%,-31,4,
O=C(NCc1cccnc1)Nc1ccc([N+](=O)[O-])cc1,/,0.2,/,-7,/,
COc1ccc(-n2nc(C(=O)NCC(=O)N3CCCCCC3)c3ccccc3c2=O)cc1,/,1.0,/,2,/,
O=c1[nH]c(N2CCN(c3ccccc3)CC2)nc2c1CCCC2,-12,-7.1,1%,0,-6,
CN1CCN(c2nc3ccccn3c(=O)c2/C=C(\C#N)S(=O)(=O)c2ccccc2)CC1,/,-16,-7%,-4,/,
CN1CCN(C(=O)C2(NC(=O)Nc3cccc(F)c3)CCCCC2)CC1,-19,-0.4,3%,-6,-2,
CC1=NNC(=O)C1CCC(=O)N/N=C/c1ccco1 (stereo unspecified),/,-2.5,-5%,-4,1,

# Screens as filed in PubChem BioAssay.
